# MenB inh – inhibitors of Mycobacterium tuberculosis MenB enzyme | P9WNP5 | MenB enzyme assay, absorbance read-out; some hits fall short of the stated cut | inhibition, %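 (about 12 µg/mL by stock and volumes)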 | 0.43% of 100,000 active | AID 540299;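 active means mean of two replicates above 30%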;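 further: 0% = no compound and 100% = wells with inactive enzyme; the first replicate is given; strong numbers were not always called active; inactives centre near -10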
# Target sequence (P9WNP5 whole entry, looked up): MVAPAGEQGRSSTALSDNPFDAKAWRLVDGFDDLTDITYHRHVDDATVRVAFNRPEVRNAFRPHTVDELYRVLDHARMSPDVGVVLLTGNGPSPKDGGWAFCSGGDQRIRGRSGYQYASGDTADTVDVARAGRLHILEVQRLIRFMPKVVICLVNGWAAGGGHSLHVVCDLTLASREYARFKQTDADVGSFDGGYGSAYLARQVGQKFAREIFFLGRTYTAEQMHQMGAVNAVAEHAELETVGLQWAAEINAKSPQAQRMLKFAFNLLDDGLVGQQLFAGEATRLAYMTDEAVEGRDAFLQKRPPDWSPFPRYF
# Mtb MbtI inh – blocks the Mycobacterium tuberculosis siderophore enzyme MbtI; P9WFX0; purified MbtI enzyme, fluorescence intensity read-out; inhibition, %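 (about 17 µg/mL by stock and volumes)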; 0.89% of 100,000 active; AID 493033;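 active means above 50% in both replicates, above 80% if mildly self-fluorescent; inactive means the rest, strongly fluorescent compounds included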;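 further: 0% = mean of negative and 100% = mean of positive controls; one replicate is shown; some compounds called inactive have numbers as strong as hits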
# Target sequence (P9WFX0 whole entry, looked up): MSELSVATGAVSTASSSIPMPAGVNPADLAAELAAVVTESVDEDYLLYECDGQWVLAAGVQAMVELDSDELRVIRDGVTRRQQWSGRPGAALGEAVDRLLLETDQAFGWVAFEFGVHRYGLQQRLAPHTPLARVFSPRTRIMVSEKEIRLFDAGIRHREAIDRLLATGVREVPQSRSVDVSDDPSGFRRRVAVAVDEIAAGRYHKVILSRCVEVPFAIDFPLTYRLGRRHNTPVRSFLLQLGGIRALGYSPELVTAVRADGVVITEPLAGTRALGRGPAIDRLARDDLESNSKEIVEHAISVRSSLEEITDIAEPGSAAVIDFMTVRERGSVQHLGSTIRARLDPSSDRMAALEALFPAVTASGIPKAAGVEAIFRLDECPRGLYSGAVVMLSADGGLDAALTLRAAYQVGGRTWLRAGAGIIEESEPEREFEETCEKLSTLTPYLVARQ
# PV pol inh – inhibitors of poliovirus RNA polymerase binding and polymerization; P03300; poliovirus polymerase elongation, fluorescence polarization; active compounds read low; % elongation, % (compound at 16.7 µg/mL); 0.66% of 150,000 active; AID 588519; in the data active means % elongation below about 90%; further: some results filed as inactive read as strong as hits
# PV pol inh intensity – second read-out of PV pol inh, no call of its own (marks repeat the call); % elongation; measured here: total intensity read-out; formula for this scale not given here;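 total fluorescence in place of polarization; lower means less elongation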
# Active calls of the source: *; nt = not tested or not shown; & = joins results of further samples.
# Order of results: MenB inh	Mtb MbtI inh	PV pol inh	PV pol inh intensity
- Cc1ccc(C)c(NC(=O)CCn2ccc(C)n2)c1
→ -16	-15	102	101
- CC(O)c1cccc2ccccc12 (stereo unspecified)
→ -12	6	101	100
- CCCn1c(SC(C)C(=O)C23CC4CC(CC(C4)C2)C3)n[nH]c1=O (stereo unspecified)
→ -5	-8	104	104
- O=C(COC(=O)c1ccc(-n2cnnn2)cc1)c1ccc(S(=O)(=O)N2CCCCC2)cc1
→ 12	1	105	98
- CCC(Oc1ccccc1)C(=O)N1CCN(c2ccc(OC)cc2)CC1 (stereo unspecified)
→ -10	-19	100	103
- CCN(C(=O)C1CCN(S(=O)(=O)c2cccc3nonc23)CC1)c1ccccc1
→ -3	10	105	107
- CN(C(=O)CN(CCO)CC(=O)N(C)C(C)(C)Cc1ccccc1)C(C)(C)Cc1ccccc1
→ -3&-1	-9&0	99&101	102&98
- COc1ccccc1NC(=O)N(Cc1cc2c(C)ccc(C)c2[nH]c1=O)CC1CCCO1 (stereo unspecified)
→ -39	-21	101	103
- NC(=O)c1ccc(OCC(=O)N(c2ccccc2)C2CCS(=O)(=O)C2)cc1 (stereo unspecified)
→ -11	-12	108	109
- O=C(Nc1cc(S(=O)(=O)c2ccccc2)cs1)c1ccc(Cl)cc1
→ -29	24	105	102
- COC(=O)c1sc(NC(=O)c2ccc3c(c2)OCO3)c(C#N)c1C
→ 4	-3	102	104
- NC(N)=Nc1nc(CSCC/C(N)=N\S(N)(=O)=O)cs1
→ 4	1	99	100
- CO/N=C/c1nc2ccccc2s1
→ -3	4	102	106
- CC(C)c1nnc2sc(-c3cccc4ccccc34)nn12
→ -57	94	100	95
- O=C(NCCN1CCCCC1)c1ccccn1
→ -10	nt	103	103
- CC1(C)C2CCC1(CS(=O)(=O)Nc1ccccc1)C(=O)C2 (stereo unspecified)
→ 11	15	105	102
- CC(=O)Nc1sc2c(c1CN1CCCCC1)CCCC2
→ nt	0	102	100
- CC1(C)CN=C(Nc2ccc(F)c(F)c2)S1
→ -25	0	104	104
- Cc1ccc2c(c1)C1C=CCC1C(c1ccc(N=Cc3ccccc3)cc1)N2 (stereo unspecified)
→ -40	23	102	108
- CCOc1cc(-c2noc(CCCC(=O)NC3CCCCC3)n2)cc(Br)c1OC
→ -2	5	102	103
- O=C(/C=C/c1ccccc1)Nc1ccc(Br)cc1
→ -21	1	101	103
- CC(C)NS(=O)(=O)c1ccc(N2C(=O)c3ccccc3C2=O)cc1
→ -9	-3	101	100
- CC1=CCC2C(=O)N(c3ccc(C(=O)Nc4ccccc4)cc3)C(=O)C2C1 (stereo unspecified)
→ -4	5	102	107
- Cc1ccc2c(C(=O)CNc3nncs3)c(C)[nH]c2c1
→ 13	-5	100	102
- O=C(Nc1ccccc1)C1C(=O)NC23CCCCC2C1c1ccccc1O3 (stereo unspecified)
→ -28	2	106	105
- Cc1cccc(NC(=O)CNC(=O)COc2ccc3oc4ccccc4c3c2)c1C
→ 9	6	104	111
- Cc1ccccc1C(=O)Nc1nc(SCc2ccc(Cl)cc2)n[nH]1
→ -4	-5	108	102
- CC(=O)OC1CC(C)(C)N(O)C(C)(C)C1
→ 4	nt	101	104
- Cc1cc(C)n(-c2ccc(C(=O)Nc3ccccc3)cc2)n1
→ -10	7	102	102
- O=S(=O)(NCc1ccccc1Cl)c1cccc2nsnc12
→ -15	12	102	101
- Cc1ccc(CSCC(=O)NCCc2ccc(Cl)cc2)cc1
→ -12	1	102	105
- COc1ccc2oc(=O)cc(CN3CCN(c4cccc(C)c4)C(C)C3)c2c1 (stereo unspecified)
→ -7	10	102	104
- COc1ccc(Cl)cc1N(C)C(=O)Cn1ncc2c1-c1ccccc1OC2
→ -10	-2	99	101
- O=C(CSc1nnc(-c2ccc(F)cc2)c2ccccc12)NC(=O)NCc1ccco1
→ -6	16	102	107
- FC(F)(F)C1(C(F)(F)F)N=C(N2CCOCC2)OC(N2CCOCC2)=N1
→ -7	nt	104	114
- CC1CCCCC1NC(=O)COC(=O)c1ccc(C#N)cc1 (stereo unspecified)
→ 4	-2	101	106
- Cc1cc(C(=O)N2CCC(C)CC2)nc2c1c(C)nn2-c1ccccc1
→ -16	-10	106	109
- CC1CC(N(C(=O)c2ccc(Cl)cc2)c2ccccc2)c2ccccc2N1C(=O)c1ccco1 (stereo unspecified)
→ -30	-5	104	104
- COc1cc(OC)cc(C(=O)N2c3ccccc3N3C(c4c(C)cc(C)cc4C)=NON23)c1
→ -24	-2	103	104
- O=C(COC(=O)C1=COCCO1)NCc1ccc(Cl)cc1
→ -10	14	101	102
- CCOC(=O)c1sc(Nc2ccccn2)nc1C
→ -12	-130	100	102
- O=C(Nc1sc2c(c1C(=O)O)CCC2)c1ccccc1
→ nt	-7	102	109
- Cc1ccccc1OCC1CN(CN(CC(C)C)CC(C)C)C(=O)O1 (stereo unspecified)
→ -17	-9	103	98
- CCC(=O)N1CCc2cc(S(=O)(=O)N(C)CC(OC)OC)ccc21
→ -4	-3	99	104
- CCOc1ccc(NC(=O)CC(=O)Nc2ccc(OCC)cc2)cc1
→ -5	-1	97	97
- NNCc1ccccc1
→ -4	-15	102	104
- COC(CNC(=O)c1cccc(-n2c(=S)[nH]c3cc(Cl)ccc3c2=O)c1)OC
→ -9	-4	104	102
- Cc1ccc(C)c(C2C3CCCC=C3C(C#N)=C(N)C2(C#N)C#N)c1 (stereo unspecified)
→ -11	nt	107	111
- Cc1cc(=O)oc2c1ccc1occ(NO)c12
→ -4	-42	102	104
- COc1ccc(-n2nc3ccc(NS(C)(=O)=O)cc3n2)cc1Cl
→ -11	89	105	104
- CC1CCc2c(sc(NC(=O)CN3CCN(S(=O)(=O)c4cccs4)CC3)c2C(=O)OC(C)C)C1 (stereo unspecified)
→ 7	10	103	93
- O=C1CC(c2ccco2)Sc2ccccc2N1 (stereo unspecified)
→ 6	2	104	114
- COc1ccc(S(=O)(=O)Nc2cc(C(=O)NC3CCCCCCC3)ccc2N2CCOCC2)cc1
→ -9	-11	100	101
- CCCn1c(=O)c2ccccc2n2c(SCCCc3ccccc3)nnc12
→ -22	9	nt	nt
- CC1(C2CCC3C4CCC5CC6(C/C(=N\O)C5(C)C4C(O)CC32C)OCCO6)OCCO1 (stereo unspecified)
→ -15	-2	100	98
- COCc1cc(=O)[nH]c(/N=C(\N)Nc2ccc(C)cc2C)n1
→ -12	-2	105	103
- Nc1ncn(C(=O)c2ccccc2)n1
→ -2	0	101	101
- CC(OC(=O)c1ccc(S(=O)(=O)C(F)F)cc1)C(=O)N1CCOCC1 (stereo unspecified)
→ -12	-7	97	100
- CCCNC(=O)c1ccc(OC)c(OC(=O)c2ccccc2)c1
→ -10	nt	109	104
- COc1ccc(Cl)cc1NC(=O)CSc1nc2nccnc2c(=O)n1CC1CCCO1 (stereo unspecified)
→ -19	15	101	97

# Next part.
# Order of results: MenB inh	Mtb MbtI inh	PV pol inh	PV pol inh intensity
- COc1cccc(NC(=O)COC(C)=O)c1
→ -14	nt	107	105
- O=C(NC1CCCCCC1)c1n[nH]c(=O)c2ccccc12
→ -22	-5	105	105
- O=c1ccc(S(=O)(=O)N2CCCC2)c[nH]1
→ 2	-10	108	114
- CCCn1c(NC(=O)C2CCCC2)nc2ccccc21
→ -37	-3	102	102
- CC(C)(C)C1=CC(=O)C(N2CCOCC2)=CC1=O
→ -44	-2	103	101
- O=C(Nc1ncccn1)c1c[nH]c2ccccc2c1=O
→ 10	nt	100	105
- CCCNC(=O)c1ccc2c(c1)ncn2-c1ccc(OCc2ccccc2)cc1
→ -37	-6	103	107
- Cc1nc2ccccc2n(C)c1=O
→ 8	104	103	101
- O=C(Cn1ccn(-c2ccc(F)cc2)c(=O)c1=O)c1ccc(F)cc1
→ 18	3	101	101
- C=CCN1C(=O)/C(=C2\SC(N3CCCCC3)=NC2=O)c2ccccc21
→ -33	4	100	94
- Cc1cc(=O)oc2cc(OC(C)C(=O)NN)ccc12 (stereo unspecified)
→ -24	-6	91	100
- Cn1cc(CC(=O)NCCN2CCN(c3cccc(Cl)c3)CC2)c2ccccc21
→ -28	-4	104	105
- NC(=O)c1c(NC(=O)Nc2ccccc2)sc2c1CCCC2
→ -3	nt	107	114
- O=C(c1cccnc1)N1CCN(C(c2ccccc2)c2ccccc2)CC1
→ -8	nt	101	102
- CCOC(=O)c1c(C)c(C(=O)N2CCCCCC2)c(C)n1CC
→ -8	-7	102	106
- CCC1CCCCN1C(=O)COC(=O)/C=C/c1ccccc1Cl (stereo unspecified)
→ 6	16	97	102
- O=C(O)C1CCCN(CCc2ccccn2)C1 (stereo unspecified)
→ -59	0	103	100
- COc1ccc(CNC(=O)CN2C3CCCC2CC(=O)NC3)cc1 (stereo unspecified)
→ -61	-7	102	102
- CCOc1ccc(NC(=O)CCS(=O)(=O)c2ccc3c(c2)OCC(=O)N3)cc1
→ -6	0	101	101
- CCN(Cc1nc(-c2cccc(C)c2)no1)C(=O)c1c(OC)cccc1OC
→ -70	-8	108	103
- COc1cccc(OCC(=O)N2CCCc3ccccc32)c1
→ nt	-13	101	98
- c1ccn2cc(-c3ccc4c(c3)OCO4)cc2c1
→ -14	nt	120	139
- CCOc1ccc(OCC)c(NC(=O)c2ccc3c(c2)N(Cc2ccccc2)C(=O)CS3=O)c1 (stereo unspecified)
→ -5	5	103	108
- CC(=O)Nc1ccc(C(=O)Nc2ccc(C)cc2)cc1
→ -11	11	100	94
- CC1CC(C)CN(CCCNS(=O)(=O)c2cccc3cccnc23)C1 (stereo unspecified)
→ -14	12	103	101
- COC(=O)Cn1cnc2sc3c(c2c1=O)CCCC3
→ -12	4	107	113
- Cc1occc1C(=O)Nc1ccc2ccccc2c1
→ -10	-35	102	103
- COC(=O)c1ccccc1-c1cc(C)no1
→ -13	3	101	102
- COc1ccccc1N1CCN(C(=O)C(Cc2ccccc2)N2Cc3ccccc3C2=O)CC1 (stereo unspecified)
→ -2	-18	101	103
- CC1CN(C(=O)CCC(=O)NC2CCCC2)c2ccccc2O1 (stereo unspecified)
→ -10	-10	106	108

# Some values from the list:
# CCCNC(=O)c1ccc2c(c1)ncn2-c1ccc(OCc2ccccc2)cc1 in Mtb MbtI inh: -6
# COC(=O)c1ccccc1-c1cc(C)no1 in PV pol inh: 101

# Record cards, as listed above:
# `COC(=O)c1ccccc1-c1cc(C)no1` reads MenB inh = -13; Mtb MbtI inh = 3; PV pol inh = 101; PV pol inh intensity = 102
# `COc1ccccc1N1CCN(C(=O)C(Cc2ccccc2)N2Cc3ccccc3C2=O)CC1` (stereo unspecified) reads MenB inh = -2; Mtb MbtI inh = -18; PV pol inh = 101; PV pol inh intensity = 103

# (more compounds)
# Order of results: MenB inh	Mtb MbtI inh	PV pol inh	PV pol inh intensity
- O=C(NNc1ccccn1)C(c1ccccc1)c1ccccc1
→ -32	4	101	100
- c1ccc(N2CCN(c3c4c(nc5nncn35)CCC4)CC2)cc1
→ 21	48	100	103
- CC1(C)CC(=O)C2=C(C1)OC1=C(C(=O)CC(C)(C)C1)C2c1ccccc1Cl
→ -4	nt	107	109
- Cc1sc2ncnc(SCC(=O)N3CCCC3=O)c2c1C
→ -15	6	102	124
- CCSc1nc(-c2ccc(C)cc2)cc(C(F)(F)F)c1C#N
→ -6	-8	101	107
- Cc1nc2n(CC(=O)c3ccccc3)c3ccccc3n2n1
→ nt	-14	102	104
- Cc1ccc(C)n1-c1ncccc1OCc1nnc(-c2ccc3ccccc3c2)o1
→ -34	-4	104	96
- Cc1nnc(SCC(=O)Nc2sccc2C#N)s1
→ -1	2	99	110
- CC1=NN(C(C)(C)C)C(=O)C1
→ -48	7	98	92
- CCN(CC)CCNc1ccnc2cc3ccccc3cc12
→ -1	63	nt	nt
- CCOC(=O)/C(C#N)=N/O
→ -13	6	100	103
- NS(=O)(=O)c1cc(C(=O)NCC(F)(F)F)ccc1Cl
→ -2	-5	102	105
- O=c1[nH]cnc2ccc(NC(=S)NC3CC3)cc12
→ -2	nt	103	103
- CCCn1c(=O)c2sccc2n2c(CCCC(=O)NCCc3ccccc3)nnc12
→ -9	23	103	102
- O=c1c2ccccc2cnn1-c1ccccn1
→ -12	13	107	98
- COCCN1C=C(C(=O)OC)C(c2cc3c(cc2Br)OCO3)C(C(=O)OC)=C1
→ 6	2	102	104
- Cc1ccc(NC(=O)c2ccc(CN3CCCn4nc(C)cc43)cc2)c(C)c1
→ -8	-10	99	101
- Cc1ccc(S(=O)(=O)N(C)Cc2ccc(-c3nnco3)cc2)cc1
→ -29	5	103	104
- CCCCn1c(SCC(N)=O)nc2cc(S(N)(=O)=O)ccc21
→ 0	6	104	108
- Cc1c(CC(=O)O)c(=O)oc2c(C)c3occ(-c4ccc(Br)cc4)c3cc12
→ 5	-4	101	100
- NCCNc1ccccn1
→ -22	88	104	106
- O=C(Cn1ncc2ccccc21)Nc1ccc(Br)cn1
→ -48	9	105	103
- CC(SCC(=O)N1CCCCCC1)c1nc2scc(-c3cccs3)c2c(=O)[nH]1 (stereo unspecified)
→ -18	-6	109	109
- C=C1C(C(=O)NCc2ccncc2)C1C(=O)NCc1ccncc1 (stereo unspecified)
→ nt	-8	103	102
- O=C1Nc2ccccc2C12NNC(=S)NN2
→ -71	-1	99	97
- Cc1noc(C)c1CSCC(=O)c1cc(C)n(-c2ccccc2)c1C
→ -26	-2	105	102
- CC(C)Cc1cc(C(=O)Nc2sc3c(c2C#N)CCC3)no1
→ -22	75	102	102
- COc1ccc(C(=S)N2CCN(C(N)=S)CC2)cc1
→ -2	3	98	103
- O=c1nc(NCc2ccccc2)cn[nH]1
→ -27	-7	103	109
